# Bioassay records as filed in PubChem BioAssay.
# Cruzain inh noDet – inhibitors of Trypanosoma cruzi cruzain without detergent | P25779 | purified cruzain, Z-FR-AMC fluorescence, no detergent | Potency, µM, for inactives: max response, negative = inhibition, most hits filed as inhibitors | 200,000 compounds, 2.3% hits | AID 1476;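 also: plate controls were enzyme without inhibitor for no effect and buffer without enzyme for full effect; nearly all actives have a fitted effect of over 40% in size; top concentration of the series not given in the record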
# Target sequence (P25779 123-467 limits assumed): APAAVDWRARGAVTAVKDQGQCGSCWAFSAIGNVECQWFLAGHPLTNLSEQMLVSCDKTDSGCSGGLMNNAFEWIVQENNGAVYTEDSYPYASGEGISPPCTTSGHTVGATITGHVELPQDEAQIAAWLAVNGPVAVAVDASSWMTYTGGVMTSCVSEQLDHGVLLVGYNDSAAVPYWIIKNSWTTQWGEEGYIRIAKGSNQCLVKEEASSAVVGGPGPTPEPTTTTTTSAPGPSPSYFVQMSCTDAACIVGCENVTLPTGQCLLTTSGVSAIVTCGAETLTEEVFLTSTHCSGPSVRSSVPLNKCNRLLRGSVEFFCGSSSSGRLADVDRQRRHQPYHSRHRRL
#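 Purified cruzain at 1.5 nM, pre-incubated 15 min with compound at room temperature in 100 mM sodium acetate pH 5.5, 5 mM DTT, 0.00005% Triton X-100. Reaction started with 2 uM Z-FR-AMC; AMC fluorescence increase over 60 s gives rate.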
# Cruzain Triton – blocks cruzain activity in presence of Triton detergent; P25779; purified cruzain, Z-FR-AMC fluorescence, 0.01% Triton; Potency, µM, for inactives: max response, negative = inhibition, most hits filed as inhibitors; 200,000 compounds, 0.43% hits; AID 1478;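 also: plate controls were neutral wells for no effect and buffer without enzyme for full effect; nearly all actives have a fitted effect of over 40% in size; top concentration of the series not given in the record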
#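 In this qHTS format, compounds are incubated with 1.5 nM cruzain for 15 min at room temperature before 2 uM Z-FR-AMC is added. Release of AMC is followed at 360/450 nm, and progress is taken as the 60 s fluorescence difference.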
# SARS PLP yeast – inhibitors of SARS-CoV papain-like protease in yeast; Potency, µM (doses to about 32.9 µM), inactives show at the top dose activity, positive = growth rescue; S. cerevisiae expressing SARS-CoV PLpro, growth rescue; control for the full effect not named in the record; 330,000 compounds, 0.19% hits; active means well fitted rising curve with a large enough effect; inconclusive means small, poorly fitted or top-dose-only effect; inactive means no such curve, though single readings can be large or run the other way; also: 0% is about no effect; nearly all actives have a fitted effect of over 55% in size; growth read by luminescence after 48 h
# RE007 growth inh – less growth of the S. pombe RE007 Vpr strain; AID 651644; 360,000 compounds, 0.21% hits; Potency, µM (titrated, usually from 92.2 µM), for the others: at the top dose activity change, negative = less growth; S. pombe RE007 Vpr strain, BacTiter-Glo ATP luminescence, 24 h; control for the full effect not named in the record; active = well fitted falling curve with a large enough effect; inconclusive = small, poorly fitted or top-dose-only effect; inactive = no such curve, though single readings can be large or run the other way;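 also: % is scaled to controls: 0 for no effect and ±100 for the full control effect; nearly all actives have a fitted effect of over 50% in size; the assay follows cell death caused by Vpr and the record does not say whether a fall means rescue or toxicity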
#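 Fission yeast strain RE007, carrying one chromosomally integrated HIV-1 vpr copy, was seeded at OD 0.01 in PMG+AL medium with 23 nL pinned compound. After 24 h at 30 °C and 99% humidity, viability was read by BacTiter-Glo luminescence.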
# MARV entry inh – blocks Marburg virus binding to or entry into cells. Marburg virus pseudotyped entry inhibition, cell reporter; control for the full effect not named in the record; about a third of the inactives were read at about 46 µM. Potency, µM (doses to about 37.8 µM), inactives show at the top dose activity change, negative = inhibition, usual class: inhibitors. 300,000 compounds, 1.8% hits. AID 540276; active = well fitted inhibition curve with a large enough effect; inconclusive = small, poorly fitted or top-dose-only effect, or effect the other way; inactive = flat fitted curve, though single readings scatter; tested in HEK293 cells; about a fifth of its hits are not listed in these tables; also: % is scaled to controls: 0 for no effect and ±100 for the full control effect; luciferase read-out
# 2A StopGo – lowers the luciferase signal of an FMDV 2A StopGo reporter; human cells with a luciferase reporter of 2A StopGo recoding; control for the full effect not named in the record; Potency, µM (doses to about 57.9 µM), for inactives: at the highest dose signal change, negative = less light; 410,000 compounds, 1.2% hits; AID 1159524; active = well fitted falling curve with a large enough effect; inconclusive = small, poorly fitted or top-dose-only effect; inactive = no such curve, though single readings can be large or run the other way; tested in HEK293T cells; also: % is scaled to controls: 0 for no effect and ±100 for the full control effect; nearly all actives have a fitted effect of over 45% in size; luciferase light after 4 h
# Lassa entry inh – blocks Lassa virus binding to or entry into cells; 300,000 compounds, 1.2% hits; Potency, µM (doses to about 37.9 µM), without a hit: at the highest dose activity change, negative = inhibition, usual class: inhibitors; Lassa virus pseudotype entry inhibition, cell reporter; control for the full effect not named in the record; AID 540256; active means well fitted inhibition curve with a large enough effect; inconclusive means small, poorly fitted or top-dose-only effect, or effect the other way; inactive means flat fitted curve, though single readings scatter; tested in HEK293 cells; also: % is scaled to controls: 0 for no effect and ±100 for the full control effect; nearly all actives have a fitted effect of over 50% in size; luciferase read-out
# NS1 function inh – blocks influenza NS1 protein function | S. cerevisiae slowed by influenza A NS1, growth recovery by OD600 | Potency, µM (top dose mostly 46.1 µM), for the others: at the highest dose activity, positive = more growth | 270,000 compounds, 0.4% hits | AID 2326; active means well fitted rising curve with a large enough effect; inconclusive means small, poorly fitted or top-dose-only effect; inactive means no such curve, though single readings can be large or run the other way; also: nearly all actives have a fitted effect of over 50% in size
#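 Recovery from NS1-induced slow growth read by OD600 in budding yeast switched to galactose assay medium (pH 6.0, -URA) at 1:100 dilution. Compound 23 nl per well; the matching strain lacking NS1 serves as control.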
# The depositor's hits bear a star; ? = inconclusive; · = no result given; [ ] = dose if it differs, or a comment. Unless noted, calls follow the shape of the dose curve; as a rule, active = well fitted curve in the direction sought with a large enough effect; inconclusive = small, poorly fitted or top-dose-only effect, or another doubt; inactive = no such curve, though single readings can be large; an effect the other way counts as inactive or inconclusive. Potency is read from the fitted curve at half-maximal effect. Hits appear at their usual frequency; about 4.8% have a hit in one of these screens.
# Second line of a record – Cruzain inh noDet | Cruzain Triton | SARS PLP yeast | RE007 growth inh | MARV entry inh | 2A StopGo | Lassa entry inh | NS1 function inh
Cc1csc(=Nc2cccnc2)n1CC1CCCCC1
→ -11.1% | -5.3% | -12.2% | 1.2% | ? | -3.8% | 5.4% | -20.7%
CN1CCC(CC(C(=O)N2CCCC2)(c2ccccc2)c2ccccc2)C1 (stereo not given)
→ · | · | · | -14.8% | ? | 13.1% | -10.1%[46.1 µM] | ·
O=C(OCC(=O)N1CCN(c2ccccc2)CC1)c1cccc(Cl)c1
→ -15.8% | -10.1% | ? | 9.4% | 1.3% | 4.4% | -15.6% | -5.5%
CN1C(=O)[C@@H]2[C@@H]3C[C@@H]([C@H]4ON=C(c5ccccc5OCC#N)[C@@H]34)[C@@H]2C1=O
→ · | · | 0.2% | 3.3% | 13.0%[46.1 µM] | -7.1% | -7.8%[46.1 µM] | 0.8%
CCOc1ccc(N(CC(=O)Nc2ccc(C)cc2)S(C)(=O)=O)cc1
→ · | · | 3.9% | 8.2% | 23.2% | 64.0%[activator] | 0.2% | 22.5%
Cn1c(CC(=O)Nc2ccc(Cl)c(Cl)c2)nnc1SCC(=O)NCc1ccccc1
→ · | · | -1.4% | 11.1% | -10.1%[46.1 µM] | 3.5% | 1.4% | ·
COc1ccc(F)cc1S(=O)(=O)NCCc1sc2nc(-c3ccc(F)cc3)nn2c1C
→ ? | -10.2% | · | · | · | 25.9% | -23.3%[46.1 µM] | ·
CCN(CC)C(=O)Cn1c(=O)cc(C)c2c(C)nn(-c3cccc(Cl)c3C)c21
→ 14.5% | -2.8% | · | · | · | -8.4% | -24.7%[46.1 µM] | ·
NS(=O)(=O)c1ccc(-c2ccc(/C=C3\C(=O)Nc4cc(Cl)ccc43)o2)cc1
→ · | · | -1.7% | -2.1% | · | 3.4% | · | 19.8%
Clc1ccc(-c2cc3ccccc3[nH]2)cc1
→ ? | -9.2% | -3.4% | -20.6% | ? | 64.4%[activator] | ? | -56.3%
CCOc1ccccc1C(=O)N[C@H](C(=O)OCc1cc([N+](=O)[O-])cc2c1OCOC2)C(C)C
→ 12.5% | -5.0% | 17.8% | 8.1% | 11.2µM* | -29.6% | ? | 9.8%
O=C1NCCCC1C(=O)NCCN1C(=O)CCC1=O (stereo not given)
→ -0.3% | -0.4% | 3.8% | -25.8% | ? | -17.3% | -8.9% | ?
CCN(CC)S(=O)(=O)c1ccc(N2CCOCC2)c(NC(=O)C(=O)c2c(-c3ccccc3)cc3ccccn23)c1
→ 14.0% | -2.6% | -23.9% | 15.6%[3.69 µM] | ? | 15.3% | ? | 2.3%
COc1ccc(Cc2nnc(NC(=O)C3CC(=O)N(c4ccc(OC)cc4)C3)s2)cc1 (stereo not given)
→ · | · | 0.6% | 6.0% | 3.9%[46.1 µM] | -8.1% | · | -8.8%
Cc1ccc(/C=N/N2CCN(Cc3cccc4ccccc34)CC2)o1
→ 5.6% | -3.7% | 4.0% | -29.4% | ? | -23.4% | -7.6% | -4.0%
COc1ccc(CCNC(=O)c2cc(S(=O)(=O)N(C)C)ccc2N2CCCC2)cc1OC
→ · | · | 0.2% | -14.0% | -3.7% | -18.2% | -9.5% | -5.4%
Cc1cc(NC(=O)CCC(=O)N(CC(=O)NC2CCCC2)c2ccccc2)no1
→ 6.4% | 1.9% | 0.7% | -8.8% | -0.6% | -6.3% | ? | -1.6%
CN1C(c2ccccc2)=NO[C@]1(C)c1ccccc1
→ · | · | · | -2.6% | 6.6%[46.1 µM] | 54.2%[activator] | 1.9% | ·
Cc1cc(C)cc(NC(=O)CSCc2nc3c(nnn3Cc3ccc(F)cc3)c(=O)[nH]2)c1
→ · | · | · | 10.8% | -6.1% | -8.0% | -6.4% | ·
O=[N+]([O-])c1ccc(NCCCO)c(C(F)(F)F)c1
→ 3.0% | -8.0% | 7.6% | -8.9% | 2.6% | -19.4% | -8.0% | -14.5%

# Reformatted as tab-separated lines: 2 of the compounds above.
smiles	Cruzain inh noDet	Cruzain Triton	SARS PLP yeast	RE007 growth inh	MARV entry inh	2A StopGo	Lassa entry inh	NS1 function inh
CN1CCC(CC(C(=O)N2CCCC2)(c2ccccc2)c2ccccc2)C1 (stereo not given)	·	·	·	-14.8%	?	13.1%	-10.1%[46.1 µM]	·
NS(=O)(=O)c1ccc(-c2ccc(/C=C3\C(=O)Nc4cc(Cl)ccc43)o2)cc1	·	·	-1.7%	-2.1%	·	3.4%	·	19.8%

# Additional structures follow.
# Second line of a record – Cruzain inh noDet | Cruzain Triton | SARS PLP yeast | RE007 growth inh | MARV entry inh | 2A StopGo | Lassa entry inh | NS1 function inh
Cc1ccc(OCCCC(=O)Nc2ccc(S(N)(=O)=O)cc2)cc1
→ · | · | -0.4% | 2.6% | -15.7%[46.1 µM] | -18.6% | -12.4% | ·
COc1ccc(-c2[nH]nc3nc(-c4cc(Br)ccc4OC)cc(C(=O)O)c23)cc1
→ 29.7% | -1.3% | · | · | · | -15.8% | 3.8%[46.1 µM] | ·
O=C(Nc1cc(C(F)(F)F)ccc1Cl)c1cc(-c2cccs2)nc2ccccc12
→ 9.5% | -0.7% | · | · | · | -17.3% | 21.8%[46.1 µM] | ·
CCOC(=O)c1c(S(=O)(=O)N2CCC(C(=O)NCc3ccc(F)cc3)CC2)c(C)n(C)c1C
→ 13.1% | 5.1% | · | · | · | 15.3% | 7.8%[46.1 µM] | ·
CCOC(=O)c1nn(-c2ccc(C)cc2)cc1C(=O)c1ccccc1
→ 2.9% | -0.6% | -1.1% | -4.3%[3.69 µM] | ? | 16.4% | 10.4% | -4.0%
CNC(=S)NNC(=O)c1ccc2c(c1)OCO2
→ · | · | 9.8% | 13.2% | · | 19.4% | · | 2.4%
CCCC(CCC(=O)Nc1cccc([N+](=O)[O-])c1)C(=O)O (stereo not given)
→ · | · | 0.3% | 14.9% | 1.3%[46.1 µM] | 6.8% | 12.5% | 3.5%
COc1ccc(-n2c(=O)c(NC(=O)c3ccccc3)c3n(c2=S)CCCCC3)cc1
→ · | · | 0.4% | 0.8% | 17.4%[46.1 µM] | 9.7% | -2.5% | -4.2%
O=C(Cn1cnc2c(nnn2Cc2ccc(F)cc2)c1=O)NCc1ccccc1
→ · | · | 2.8% | -7.2% | · | 0.0% | · | 9.7%
c1nc(N2CCCC2)c2[nH]cnc2n1
→ -12.7% | -1.9% | 6.1% | 2.3% | ? | 14.2% | 27.3%[14.3 µM] | -2.1%
CN(C)c1ccc(C(=O)NCCCSc2ccccc2)cc1
→ · | · | · | -4.9% | ? | -0.3% | -12.7%[46.1 µM] | -1.8%
COc1cc2ccccc2cc1C(=O)OCC(=O)NC1CCS(=O)(=O)C1 (stereo not given)
→ · | · | -1.9% | -24.6% | -11.5%[46.1 µM] | 6.3% | 9.0% | ·
Cc1cccc(C(=O)NCC(=O)OCc2cc(=O)n3nc(C4CCCCC4)sc3n2)c1
→ 2.4% | -3.1% | · | · | · | -1.6% | 5.8%[46.1 µM] | ·
O=c1c(-c2ccc(Cl)cc2)coc2c(CN3CCOCC3)c(O)ccc12
→ 2.1% | -7.8% | -2.3% | 16.1% | ? | -2.5% | ? | ?
O=C(Nc1cccc(O)c1)c1cc(-c2ccccc2F)no1
→ ? | -8.3% | · | · | · | 63.0%[activator] | -0.4%[46.1 µM] | ·
CCC(=O)N1c2nc(-c3ccco3)nn2C2(CCCCC2)[C@@H]2CCCC[C@@H]21
→ -0.7% | -3.5% | · | · | -21.5%[46.1 µM] | 0.0% | ? | ·
NS(=O)(=O)c1ccc(NC(=O)CSc2ncnc3ccccc23)cc1
→ · | · | 0.6% | 19.6% | · | -6.6% | · | 2.1%
CSCC[C@H](NS(=O)(=O)c1ccc(C(C)=O)cc1)c1nnc2ccccn12
→ · | · | -2.4% | 13.0% | · | 0.1% | · | 3.1%
CC(C)C(=O)Nc1c(C(=O)N2CCN(c3ncccn3)CC2)oc2ccccc12
→ · | · | 7.5% | -2.2% | · | 29.8% | · | -7.0%
CC(=O)c1sc(=S)n(Cc2ccccc2)c1C
→ · | · | -0.7% | 1.0% | · | -9.1% | · | 1.1%
CC1N=C(c2ccccc2Cl)c2cc(Br)ccc2NC1=O (stereo not given)
→ · | · | -0.7% | -2.3% | ? | 6.9% | -13.5% | -3.1%
COc1ccc(C(=O)NCC(c2cccnc2)N2CCN(c3ccc(F)cc3)CC2)cc1 (stereo not given)
→ ? | -11.9% | · | · | · | -25.4% | -15.3%[46.1 µM] | ·
CCNC(=O)C1(c2ccccc2)CCCC1
→ 3.7% | 0.2% | · | 4.0% | 13.3% | 1.8% | 8.5% | -8.3%
COc1ccc(OC)c(-c2csc(NC(=O)c3ccc(F)cc3)n2)c1
→ · | · | -7.8% | -10.2% | · | -17.0% | · | -26.5%
Cc1ccc(N/C=C/C(=O)c2ccccc2)cc1Br
→ · | · | -0.9% | 2.6% | · | 10.1% | · | 8.8%
Cc1ccc(S(=O)(=O)NCCSCc2ccccc2)cc1
→ ? | ? | -3.8% | -10.8% | ? | 9.9% | -17.1% | 12.1%
O=C(Nc1ccc(Br)cc1)N1CCCCC1
→ · | · | -5.4% | -13.5% | 26.6% | 68.2%[activator] | ? | -8.4%
CCOC(=O)N1C2C=C(C)[C@@H]2[C@@H]2CC(=O)N21 (stereo not given in full)
→ 12.6µM* | 14.1µM* | ? | -12.3% | 9.7% | -11.7% | -7.5% | -1.2%
O=C(Nc1ccc(Cc2ccncc2)cc1)c1cc(F)c(F)cc1Cl
→ · | · | -0.2% | -7.5% | 19.3%[46.1 µM] | -24.3% | -19.6% | 1.5%
O=C(CSc1nnc(-c2ccccc2)o1)N1CCN(c2ccccc2)CC1
→ -6.2% | 5.8% | 6.7% | -17.2% | 3.3% | 3.0% | 9.2% | 8.1%
CCN(CC)S(=O)(=O)c1ccc(O)c(NC(=O)c2cc(-c3cc(OC)c(OC)c(OC)c3)nc3ccccc23)c1
→ · | · | -0.5% | -6.1% | 10µM* | ? | ? | -2.5%
